# Rango complex inh – prevents formation of the Rango-importin beta complex; Rango CFP/YFP FRET sensor + importin beta, 45 min; AID 540263; Potency, µM (highest dose often 92.2 µM), without a hit: top-dose inhibition of complex formation; 0.031% of 340,000 active; Q14974; active = rising FRET ratio curve, often small or poorly fitted; inconclusive = mostly compound fluorescence or quenching in the first reads; inactive = flat curves in all reads;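 further: potency means the concentration at half of the fitted maximal effect; 0% = DMSO wells and 100% = buffer wells lacking importin beta; nearly all actives have a fitted effect of over 15% in size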
# Target sequence (Q14974 whole entry, looked up): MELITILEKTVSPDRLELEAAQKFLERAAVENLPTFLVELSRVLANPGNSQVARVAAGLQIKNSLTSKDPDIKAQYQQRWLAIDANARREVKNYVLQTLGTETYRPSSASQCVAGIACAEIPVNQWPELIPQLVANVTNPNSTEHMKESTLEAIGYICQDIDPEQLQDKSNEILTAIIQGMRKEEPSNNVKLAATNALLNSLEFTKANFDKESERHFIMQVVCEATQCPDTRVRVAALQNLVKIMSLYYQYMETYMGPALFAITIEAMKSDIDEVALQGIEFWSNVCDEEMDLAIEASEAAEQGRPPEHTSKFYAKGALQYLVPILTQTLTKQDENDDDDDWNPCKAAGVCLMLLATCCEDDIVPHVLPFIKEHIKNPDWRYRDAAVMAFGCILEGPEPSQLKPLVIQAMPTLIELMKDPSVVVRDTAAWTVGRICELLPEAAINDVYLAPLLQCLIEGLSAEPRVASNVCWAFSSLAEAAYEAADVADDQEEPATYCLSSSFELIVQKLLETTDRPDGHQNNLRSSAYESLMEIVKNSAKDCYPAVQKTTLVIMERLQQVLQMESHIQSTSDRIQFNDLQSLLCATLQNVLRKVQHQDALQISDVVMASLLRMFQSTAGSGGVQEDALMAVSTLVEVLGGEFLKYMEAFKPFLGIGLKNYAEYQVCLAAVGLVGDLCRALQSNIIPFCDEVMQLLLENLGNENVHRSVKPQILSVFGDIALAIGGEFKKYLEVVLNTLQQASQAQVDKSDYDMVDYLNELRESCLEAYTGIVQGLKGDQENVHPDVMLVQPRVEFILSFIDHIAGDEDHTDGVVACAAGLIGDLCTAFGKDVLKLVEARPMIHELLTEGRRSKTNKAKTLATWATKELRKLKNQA
#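 FRET biosensor (snurportin 1 IBB flanked by EYFP and cerulean), 50 nM, with compound 5 min, then 0.125 microM importin beta in PBS, 1 mM DTT, 0.02% Tween-20, 0.1% BSA. CFP/YFP ratio read after 45 min at room temperature; pre-read flags interference.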
# Rango release inh – prevents RanGTP from dissociating the Rango-importin beta complex; Biochemical FRET Rango-importin beta, RanGTP-induced dissociation; Potency, µM (series often up to 46.1 µM), for the others: at the highest dose activity change, negative = inhibition; 0.071% of 340,000 active; AID 540253; active means falling FRET ratio curve, often poorly fitted, with flat reads before Ran was added; inconclusive means other falling curves, or compound fluorescence or quenching; inactive means flat or rising ratio curve;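 further: potency means the concentration at half of the fitted maximal effect; % of control where 0% means no effect; nearly all actives have a fitted effect of over 45% in size; -100% = wells without RanGTP and RCC1; the record marks most hits as doubtful in a second field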
#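 Compounds sat 5 min at room temperature with 0.1 uM Rango biosensor plus 0.25 uM importin beta, then FRET pre-read. RanGTP-RCC1 (0.6 uM Ran, 2mM GTP, 0.2 uM RCC1) added for 45 min, and the CFP/YFP post-read measured blocked complex dissociation.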
# miR-21 FLuc – raises the signal of a miR-21 reporter. Potency, µM (series often up to 38.3 µM), without a hit: at the top dose reporter change, positive = more light. AID 2288. 340,000 tested, under 10 active. HeLa miR-21 FLuc reporter, luciferase, 48 h; active = well fitted rising curve with a large enough effect; inconclusive = small, poorly fitted or top-dose-only effect; inactive = no such curve, though single readings can be large or run the other way;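 further: % of control where 0% means no effect; miR-21 action dims this reporter so a rising signal means less miR-21 action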
#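 HeLa miR-21-FLuc reporter line, endogenous miR-21; 2000 cells/well in DMEM/10% FBS; compound titration up to ~40uM final, 48 h, 37 degree Celsius; luciferase detection reagent, 15 min lysis, CCD luminescence.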
# GLA inh pH 4.5 – alpha-galactosidase A (human) inhibition, pH 4.5. P06280. purified enzyme, 4-MU-alpha-Gal fluorescence, pH 4.5. activity change, negative = inhibition, % at 105 µM. 230,000 tested, under 10 active. AID 1467; inconclusive = small, poorly fitted or top-dose-only inhibition, or a rising curve; inactive = flat fitted curve, though single readings scatter; no compound was filed as active;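 further: 0% = full activity with enzyme and -100% = basal without enzyme; dose as in the result columns while the protocol names 77 µM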
# * = called active by the depositor; u = inconclusive; x = not tested or not shown; & = joins results of further samples. These rows are one share of the data, so the mix of outcomes need not match the whole.
SMILES | Rango complex inh | Rango release inh | miR-21 FLuc | GLA inh pH 4.5
O=c1c2cc(Cl)cc(Cl)c2nc(CN2CCOCC2)n1-c1ccccc1F | 0.5% | 15% | -8% | 8
CCN(CC)CCN=Cc1c(O)n(CCC2=CCCCC2)c(=O)[nH]c1=O | -1.0% | 4% | -4% | 0
COCCOC(=O)c1c(N)n(Cc2ccc(OC)cc2)c2nc3ccccc3nc12 | u | -29% | -8% | u
Cc1c(N=Cc2c(O)n(Cc3ccccc3)c(=O)[nH]c2=O)c(=O)n(-c2ccccc2)n1C | 2.1% | -4% | -4% | -2
CSc1cccc(NP2(=O)OCC(C)([N+](=O)[O-])CO2)c1 (stereo not drawn) | 2.1% | 22% | x | x
CC1CN(c2ccc([N+](=O)[O-])c(N3CCCCC3)c2)CCN1 (stereo not drawn) | 0.4% | -7% | -9% | -20
COC(=O)C1=C(c2ccc3ccccc3c2)C[C@@H]2CC[C@H]1N2C(=O)NCc1ccco1 | -0.3% | 1% | x | x
OCCN1CCN(CCCN2c3ccccc3Sc3ccc(C(F)(F)F)cc32)CC1 | 0.9% | -2% | u | -14&-3&-1
CC/C(=N\NC(=O)c1ccccc1Cl)c1c(O)n(C2CCCCC2)c(=O)[nH]c1=O | u | 7% | -5% | x
Cc1ccc(-c2cc(-c3ccccc3)cc(-c3ccccc3)[n+]2-c2ccccc2C(=O)O)cc1 | -2.4% | -18% | x | x
COc1cc2[nH]c(=O)n(-c3ccccc3)c(=O)c2cc1OC | 1.6% | -9% | -7% | 8
CC(C)CCC1(CN2CCCC2=O)C(=O)NC(=O)NC1=O | 2.2% | 1% | 4% | x
O[C@H]1[C@H](O)[C@@H](O)CN2CC[C@H](O)[C@H]12 | -2.5% | -1% | -1% | 0&2
Cc1cc(C)n2nc(SCC(=O)N3CCC4(CC3)OCCO4)nc2n1 | -1.9% | 1% | -1% | -19
OC1/C(=C/c2ccc(Cl)cc2Cl)N2CCC1CC2 (stereo not drawn) | 0.1% | 0% | -8% | 2

# Of the compounds above, two contain fluorine.
SMILES | Rango complex inh | Rango release inh | miR-21 FLuc | GLA inh pH 4.5
O=c1c2cc(Cl)cc(Cl)c2nc(CN2CCOCC2)n1-c1ccccc1F | 0.5% | 15% | -8% | 8
OCCN1CCN(CCCN2c3ccccc3Sc3ccc(C(F)(F)F)cc32)CC1 | 0.9% | -2% | u | -14&-3&-1

# Further entries follow:
SMILES | Rango complex inh | Rango release inh | miR-21 FLuc | GLA inh pH 4.5
O=c1[nH]c(=O)n(CCc2ccc(F)cc2)c(O)c1C=NCCCN1CCOCC1 | -0.7% | 4% | -1% | 4
CC(C)Nc1nc(Cl)nc(NC(C)C)n1 | 0.7% | 2% | -9% | 2&4
CN1C(=O)N(C)C(=O)C2(Cc3c(ccc4ccccc34)N(C)C2)C1=O | -0.1% | 8% | -6% | 3
CC1CCCCN1Cc1c[nH]c2ccccc12 (stereo not drawn) | -5.3% | 0% | -1% | -2
O=C(c1ccc(Br)cc1)C12CN3CN(CN(C3)C1)C2 | -0.7% | 0% | -2% | -16
Oc1ccc(Cl)cc1Cc1ccccc1 | -0.3% | 24% | x | x
COC(=O)C1=C(c2ccccc2OCc2ccccc2)C[C@@H]2CC[C@H]1N2C(=O)NCc1ccc(Br)cc1 | -5.2% | -2% | x | x
NNCc1ccccc1 | -3.5% | 9% | x | -5
CN(C)C(=O)Oc1ccc(Cl)c2ccccc12 | -0.2% | 2% | -8% | -7
CC(C)OCCCNC(=O)c1c(N)n(CC2CCCO2)c2nc3ccccc3nc12 (stereo not drawn) | u | u | 8% | u
C=CCN1C(=O)NC(=O)C(Cc2ccc(OC)c(OC)c2)C1=O (stereo not drawn) | 0.3% | 1% | -5% | 10
CCc1cc(=O)oc2cc(OCC(=O)N3C[C@H]4C[C@@H](C3)c3cccc(=O)n3C4)c(Cl)cc12 | -0.1% | 1% | 2% | x
CC(C)OC(=O)c1c(N)n(Cc2ccco2)c2nc3ccccc3nc12 | u | u | 2% | 5
CCn1c(O)c(C=NCCN2CCOCC2)c(=O)[nH]c1=S | 4.2% | -3% | -2% | 5
COc1ccccc1/C=C1\C(=O)NC(=S)N(c2ccccc2)C1=O | u | -18% | -7% | x
O=c1[nH]c(=O)n(-c2cccc3ccccc23)c(O)c1/C=N/N1CCCCCC1 | -1.2% | 2% | 2% | -3
CC1(C)CN=C(Nc2ccc(F)c(F)c2)S1 | 2.3% | 0% | -10% | 0
CC(C)C(=O)NC(Oc1ccccc1Cl)C(Cl)(Cl)Cl (stereo not drawn) | -0.4% | 3% | -1% | 1
CCOc1cc(C2NCc3ccccc3-n3cccc32)ccc1O (stereo not drawn) | 0.3% | -11% | -6% | -8
OC(CN1CC=C(c2ccccc2)CC1)c1ccccc1 (stereo not drawn) | -0.7% | -22% | -10% | x
Cn1cc(C(=O)N2CCOCC2)c2ccccc21 | -3.9% | -2% | -1% | 12
CC(C)(C)c1ccccc1O | 5.4% | 10% | x | x
C=C(C)CN1CC[C@]23c4c5ccc(O)c4O[C@H]2c2[nH]c4ccccc4c2C[C@@]3(O)C1C5 | x | x | 12% | -7
CCOC(=O)[C@]1(C#N)[C@@H]2C=CC(C(N)=O)=CN2[C@@H](C(N)=O)[C@@H]1c1ccc(F)cc1 | u | -16% | 4% | 0
Cc1c(C(=O)N2CCC3(CC2)OCCO3)sc2ncnc(N3CCc4ccccc4C3)c12 | -0.9% | 14% | 18% | 2
O=C1CNC(c2ccccc2Cl)c2cc(Br)ccc2N1 (stereo not drawn) | -4.9% | 1% | 3% | x
Cc1nc2cc([N+](=O)[O-])ccc2c(=O)n1-c1ccc(Br)cc1 | -3.8% | 1% | -3% | x
N/C(=N\[N+](=O)[O-])N1CCN(C(=O)OC2CCCC2)CC1 | 2.1% | 6% | -1% | x
COc1ccc(N2CCN(Cc3nc4ccccc4[nH]3)CC2)cc1 | 0.5% | 8% | -6% | x
O=C(c1ccc2nc3ccc(Cl)cc3c(=O)n2c1)N1CCC2(CC1)OCCO2 | 2.1% | -1% | x | x
CCC(CC)C(=O)NC1CCSC1=O (stereo not drawn) | -2.0% | 11% | -7% | u
CN(C)C(=O)Oc1ccnc2cc(Cl)ccc12 | 2.3% | 1% | -3% | 7
O=C1C2CCCN2C(c2cccnc2)N1c1nccs1 (stereo not drawn) | 0.0% | -13% | -1% | 3
COc1ccc(CC(=O)N2C[C@H]3C[C@@H](C2)c2cccc(=O)n2C3)cc1 | 4.0% | u | 0% | x
O=c1[nH]c(=S)n(-c2cccc(Cl)c2)c(O)c1C=NCCN1CCNCC1 | 13% | -11% | 5% | x
Cc1ccnc(-n2c(C)cc(C=C3C(=O)N(C)C(=S)N(C)C3=O)c2C)c1 | u | -28% | -2% | -2
COc1ccc(/C=C/C(=O)NC(=S)N2C[C@H]3C[C@H](C2)c2cccc(=O)n2C3)cc1 | 2.4% | -3% | 0% | x
CCOC(=O)C1C(=O)NC2(C)CC1c1cc(OC)ccc1O2 (stereo not drawn) | 2.3% | -13% | 3% | -5
c1ccc(Nc2ccc3ccccc3c2)cc1 | 0.7% | 1% | x | x
COc1ccc(/C=C/C2=CCN(C)CC2)cc1 | -4.0% | 2% | -38% | 7
CCOC(=O)C1=C(C)OC(N)=C(C(=O)OC)C12C(=O)Nc1ccc(Br)cc12 (stereo not drawn) | -0.6% | -10% | -2% | -3
C[C@H]1O[C@@H](OC2CC[C@]3(C=O)[C@H]4CC[C@]5(C)[C@@H](C6=CC(=O)OC6)CC[C@]5(O)[C@@H]4CC[C@]3(O)C2)CC2OC(C)(C)OC21 (stereo partly drawn) | 1.3% | -9% | u | x
C[C@H]1CCC[C@@H](O)CCC/C=C/c2cc(O)cc(O)c2C(=O)O1 | 4.5% | -1% | 29% | 5
O=C(O)c1ccc([N+](=O)[O-])c([N+](=O)[O-])c1 | 5.7% | 10% | x | x
N#CCCn1cc(C(=O)Nc2ccc(F)cc2)c(-c2ccc([N+](=O)[O-])cc2)n1 | -0.2% | 11% | 7% | 8
Cc1cccc(C)c1NC(=O)CN(C)CC(=O)Nc1ccc(C#N)c(Cl)c1 | 0.1% | 8% | 9% | -6
Cn1c(O)c(C(=O)c2ccccc2)c(=O)n(C)c1=O | 3.3% | 7% | 0% | 3
O=c1[nH]c(=S)n(C2CC2)c(O)c1C=NCC1CCCO1 (stereo not drawn) | -2.7% | -8% | 3% | -3
COc1ccc(CN2CC3CC(C2)c2cccc(=O)n2C3)cc1OC (stereo not drawn) | -3.7% | 3% | -3% | 1
CCc1ccc(C(=O)C23CN4CN(CN(C4)C2)C3)cc1 | 1.6% | 1% | -7% | 1
CCN1CCN(Cc2ccc(C)cc2C)CC1 | -0.8% | -22% | -3% | 18
O=c1[nH]c(=S)n(C2CC2)c(O)c1C=Nc1ccc2c(c1)OCO2 | 2.7% | -6% | -11% | 1
CCCCCCN1CCN(c2ccc(Cl)cc2)CC1 | -1.4% | 12% | -1% | -4
Cc1cc(OC(C)C(=O)NCc2ccncc2)c2c3c(c(=O)oc2c1)CCCC3 (stereo not drawn) | 1.2% | -25% | -1% | x
N#CC(C#N)=Cc1ccc(-c2ccccc2)o1 | x | x | 0% | -11
CCC1C2Cn3c(nc4ccccc43)C1N(C)O2 (stereo not drawn) | u | 15% | -3% | 3
COC(=O)C1=C(C)NC(=S)NC1c1ccc(N(CCCl)CCCl)cc1Cl (stereo not drawn) | 2.5% | -14% | x | x
Cc1ccc(N)c(C(=O)c2ccc(Br)cc2)c1 | -0.5% | 0% | -23% | -7
COC(=O)C1=C(c2cccc(OCc3ccccc3)c2)C[C@@H]2CC[C@H]1N2C(=O)NCCN1CCOCC1 | -2.0% | -1% | x | x
COc1ccccc1CNC(=O)C(NS(=O)(=O)c1ccc2c(c1)oc(=O)n2C)C(C)C (stereo not drawn) | u | -19% | -2% | 10

# More entries:
SMILES | Rango complex inh | Rango release inh | miR-21 FLuc | GLA inh pH 4.5
CC(C)Cn1c(-c2cccc(S(=O)(=O)N3CCOCC3)c2)n[nH]c1=S | 3.8% | -13% | x | x
CC(=NCCC1=CCCCC1)c1c(O)n(C)c(=O)n(C)c1=O | -0.7% | 12% | 1% | 2
Cc1ccc(S(=O)(=O)N2CCC(C(=O)N3CCC4(CC3)OCCO4)CC2)cc1 | -2.9% | -9% | -2% | 1
CCC(=NCc1ccco1)c1c(O)[nH]c(=O)[nH]c1=O | -0.9% | 17% | -23% | 5
Cc1[nH]c2c(C(F)(F)F)cccc2c1CCN | 0.4% | -15% | 18% | -6
ClCCN1CCN(c2ccnc3cc(Cl)ccc23)CC1 | 0.3% | -4% | -1% | x
Cn1c(O)c(C=NC2CCN(Cc3ccccc3)CC2)c(=O)n(C)c1=O | 0.1% | -1% | 7% | -4
Fc1cccc(CNCCc2c[nH]c3ccccc23)c1 | 1.0% | 25% | -9% | x
CC(C(=O)c1c[nH]c2ccccc12)N1CCc2ccccc2C1 (stereo not drawn) | -3.3% | 2% | -3% | 3
COC(=O)C1=C(c2ccc(OC(F)(F)F)cc2)C[C@@H]2CC[C@H]1N2C(=O)N1CCC(O)CC1 | -0.4% | -3% | x | x
CCN1CCN(c2ccc(N)cc2C)CC1 | -6.1% | -3% | 0% | -22
CC(=O)Nc1cccc2c1Cc1ccccc1-2 | 2.4% | u | -52% | x
O=C(Cn1c2c(c(-c3ccccc3Cl)cc1=O)CCC2)N1CCC2(CC1)OCCO2 | 1.6% | -16% | -11% | 6
O=C1CC=C2C3CC4N(CCC45c4ccccc4N1C25)CC3=CCO (stereo not drawn) | -0.1% | 2% | x | x
Cc1ccc(OCCn2cccc2/C=C2/C(=O)NC(=O)N(Cc3ccco3)C2=O)cc1 | u | -19% | -24% | 2
O=C(C[N+]12CCC(CC1)C(CO)C2)c1ccc(Br)cc1 (stereo not drawn) | 0.3% | 10% | -9% | x
CC1(C)OC(c2ccccc2)=C/C(=C/C=C2C(=O)NC(=S)NC2=O)O1 | u | u | 3% | -20
CC1(C)CN=C(Nc2ccccc2C(F)(F)F)S1 | 6.2% | 0% | -7% | 6
COc1ccc(-c2nn(CCC#N)cc2C(=O)Nc2ccc(C(C)=O)cc2)cc1 | 2.5% | -2% | -9% | x
CCN1CCC(NCC2CCCCC2)CC1 | 1.1% | 12% | 1% | x
